Screening data deposited in PubChem by National Center for Advancing Translational Sciences (NCATS).
Marburg entry inh: qHTS for inhibitors of binding or entry into cells for Marburg Virus. AID 540276, 2011. Potency, µM (doses to about 37.8 µM), without a hit: at the top dose activity change, negative = inhibition, hits mostly inhibitors. Marburg virus pseudotyped entry inhibition, cell reporter; control for the full effect not named in the record; about a third of the inactives were read at about 46 µM. actives 1.8% (n = 300,000); active = well fitted inhibition curve with a large enough effect; inconclusive = small, poorly fitted or top-dose-only effect, or effect the other way; inactive = flat fitted curve, though single readings scatter; tested in HEK293 cells; about a fifth of its hits are not listed in these tables; also: % is scaled to controls: 0 for no effect and ±100 for the full control effect; luciferase read-out
RE007 growth inh: qHTS Assay for Inhibitors of the HIV-1 protein Vpr; actives 0.21% (n = 360,000); Potency, µM (doses to about 92.2 µM), for the others: top-dose activity change, negative = less growth; S. pombe RE007 Vpr strain, BacTiter-Glo ATP luminescence, 24 h; control for the full effect not named in the record; active = well fitted falling curve with a large enough effect; inconclusive = small, poorly fitted or top-dose-only effect; inactive = no such curve, though single readings can be large or run the other way;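 also: % is scaled to controls: 0 for no effect and ±100 for the full control effect; nearly all actives have a fitted effect of over 50% in size; the assay follows cell death caused by Vpr and the record does not say whether a fall means rescue or toxicity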
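Fission yeast RE007 carrying one integrated HIV-1 vpr copy, seeded at OD 0.01 in PMG+AL medium with 23 nL pinned compound. Grown 24 h at 30 degrees; viability read by BacTiter-Glo luminescence after 5 min.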
StopGo reporter: High Throughput Screening for Foot and Mouth Disease Virus Antivirals | human cells with a luciferase reporter of 2A StopGo recoding; control for the full effect not named in the record | Potency, µM (top dose mostly 57.9 µM), inactives show top-dose signal change, negative = less light | actives 1.2% (n = 410,000); active = well fitted falling curve with a large enough effect; inconclusive = small, poorly fitted or top-dose-only effect; inactive = no such curve, though single readings can be large or run the other way; tested in HEK293T cells; also: % is scaled to controls: 0 for no effect and ±100 for the full control effect; nearly all actives have a fitted effect of over 45% in size; luciferase light after 4 h
SARS PLP yeast: qHTS of Yeast-based Assay for SARS-CoV PLP; Potency, µM (titrated, usually from 32.9 µM), for inactives: top-dose activity, positive = growth rescue; actives 0.19% (n = 330,000); S. cerevisiae expressing SARS-CoV PLpro, growth rescue; control for the full effect not named in the record; also: 0% is about no effect; nearly all actives have a fitted effect of over 55% in size; growth read by luminescence after 48 h
Cruzain inh noDet: qHTS Assay for Promiscuous and Specific Inhibitors of Cruzain (without detergent) | Cruzipain (Trypanosoma cruzi), P25779 | purified cruzain, Z-FR-AMC fluorescence, no detergent | Potency, µM, inactives show max response, negative = inhibition, actives largely listed as inhibitors | actives 2.3% (n = 200,000); active = well fitted curve in the direction sought with a large enough effect; inconclusive = small, poorly fitted or top-dose-only effect, or another doubt; inactive = no such curve, though single readings can be large; an effect the other way counts as inactive or inconclusive;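 also: plate controls were enzyme without inhibitor for no effect and buffer without enzyme for full effect; nearly all actives have a fitted effect of over 40% in size; top concentration of the series not given in the record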
Target sequence (P25779 123-467 limits assumed): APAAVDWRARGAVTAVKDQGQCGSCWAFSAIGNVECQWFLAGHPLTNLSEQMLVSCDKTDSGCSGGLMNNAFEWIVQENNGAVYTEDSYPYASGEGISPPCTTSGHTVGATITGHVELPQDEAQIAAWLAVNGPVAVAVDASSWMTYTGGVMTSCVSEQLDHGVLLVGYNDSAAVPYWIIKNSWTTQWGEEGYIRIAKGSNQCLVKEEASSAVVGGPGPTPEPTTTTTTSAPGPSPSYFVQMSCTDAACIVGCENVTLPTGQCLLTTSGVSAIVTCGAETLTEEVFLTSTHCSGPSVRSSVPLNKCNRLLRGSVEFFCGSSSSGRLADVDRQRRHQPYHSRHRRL
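Purified cruzain at 1.5 nM, pre-incubated 15 min with compound at room temperature in 100 mM sodium acetate pH 5.5, 5 mM DTT, 0.00005% Triton X-100. Reaction started with 2 uM Z-FR-AMC; AMC fluorescence increase over 60 s gives rate.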
NS1 function inh: qHTS Assay for Inhibitors of Influenza NS1 Protein Function. Potency, µM (series often up to 46.1 µM), for the others: at the highest dose activity, positive = more growth. S. cerevisiae slowed by influenza A NS1, growth recovery by OD600. actives 0.4% (n = 270,000). AID 2326, 2010; also: actives are rising curves; nearly all actives have a fitted effect of over 50% in size
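OD600 was taken as the measure of yeast growth restored by compound in an NS1-expressing S. cerevisiae strain. Cells had been washed out of glucose medium and diluted 1:100 into galactose -URA medium, pH 6.0.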
Cruzain Triton: qHTS Assay for Promiscuous and Specific Inhibitors of Cruzain (with detergent). Cruzipain (Trypanosoma cruzi), P25779. purified cruzain, Z-FR-AMC fluorescence, 0.01% Triton. Potency, µM, inactives show max response, negative = inhibition, actives largely listed as inhibitors. actives 0.43% (n = 200,000). AID 1478, 2009; active = well fitted curve in the direction sought with a large enough effect; inconclusive = small, poorly fitted or top-dose-only effect, or another doubt; inactive = no such curve, though single readings can be large; an effect the other way counts as inactive or inconclusive;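 also: plate controls were neutral wells for no effect and buffer without enzyme for full effect; nearly all actives have a fitted effect of over 40% in size; top concentration of the series not given in the record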
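Detergent-containing run (0.01% Triton X-100) in acetate buffer pH 5.5 with 5 mM DTT: enzyme at 1.5 nM final, 15 min compound preincubation at room temperature, then 2 uM Z-FR-AMC substrate. Activity taken as 60 s fluorescence increase at 360/450 nm.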
LASV entry inh: qHTS for Inhibitors of binding or entry into cells for Lassa Virus. Lassa virus pseudotype entry inhibition, cell reporter; control for the full effect not named in the record. Potency, µM (doses to about 37.9 µM), for inactives: top-dose activity change, negative = inhibition, actives largely listed as inhibitors. actives 1.2% (n = 300,000); active means well fitted inhibition curve with a large enough effect; inconclusive means small, poorly fitted or top-dose-only effect, or effect the other way; inactive means flat fitted curve, though single readings scatter; tested in HEK293 cells; also: % is scaled to controls: 0 for no effect and ±100 for the full control effect; nearly all actives have a fitted effect of over 50% in size; luciferase read-out
* hit, by the source's call; & = joins results of further samples; [ ] = remark or other dose. Unless noted, calls follow the shape of the dose curve; as a rule, active means well fitted rising curve with a large enough effect; inconclusive means small, poorly fitted or top-dose-only effect; inactive means no such curve, though single readings can be large or run the other way. Potency is read from the fitted curve at half-maximal effect.

CCOC(=O)C1=C(N)Oc2cc(O)ccc2C1c1ccc(F)cc1F (centres undefined) was read as RE007 growth inh 9%, StopGo reporter inconclusive, SARS PLP yeast -8% and NS1 function inh -48%.
Screening COc1cccc(OC)c1C(=O)Nc1ccc(N2CCN(C(=O)c3ccco3)CC2)cc1 returned Marburg entry inh -1%[46.1 µM], RE007 growth inh 11%, StopGo reporter 47%[activator], SARS PLP yeast -4% and NS1 function inh 9%.
For COC(=O)c1ccc(NC(=O)c2ccccc2NS(=O)(=O)c2ccccc2)cc1 the results were Marburg entry inh inconclusive, RE007 growth inh -14%, StopGo reporter inconclusive, SARS PLP yeast -48%, Cruzain inh noDet inconclusive, NS1 function inh -176%, Cruzain Triton -12% and LASV entry inh inconclusive.
`CS(=O)(=O)N(CC(=O)NCc1ccccc1)c1ccc(Cl)cc1` gave RE007 growth inh 3%, StopGo reporter 7%, SARS PLP yeast 2% and NS1 function inh -4%.
`O=C1CN(C(=O)COC(=O)CCCOc2ccccc2)c2ccccc2N1` gave Marburg entry inh 35%[46.1 µM], RE007 growth inh 1%, StopGo reporter 0%, SARS PLP yeast 1%, NS1 function inh -18% and LASV entry inh inconclusive.
`Nc1cc(Cc2ccccc2)ccc1O` gave Marburg entry inh -6%, RE007 growth inh 2%, StopGo reporter 1% and LASV entry inh 14%[46.1 µM].
Screening Cc1ccccc1CSc1nnc(NC(=O)C2COc3ccccc3O2)s1 (centres undefined) returned Marburg entry inh 14%, RE007 growth inh -5%, StopGo reporter -6%, SARS PLP yeast -7%, Cruzain inh noDet inconclusive, NS1 function inh -1%, Cruzain Triton -3.9% and LASV entry inh 4%.
`CN(Cc1ccccc1)C(=S)NC(=O)c1cccs1` gave Marburg entry inh inconclusive, RE007 growth inh inconclusive, StopGo reporter 1%, SARS PLP yeast 0%, NS1 function inh -63% and LASV entry inh inconclusive.
`O=S1(=O)N=C2CCCN2C(c2ccc(F)cc2)N1` (centres undefined) gave Marburg entry inh 0%, RE007 growth inh -6%, StopGo reporter -21%, SARS PLP yeast 7%, Cruzain inh noDet 5%, NS1 function inh 0%, Cruzain Triton 1.2% and LASV entry inh -3%.
Screening COc1cccc(CNC(=O)CCn2ccc3cc(S(=O)(=O)N4CCC(C)CC4)ccc32)c1 returned Marburg entry inh inconclusive, RE007 growth inh 10%, StopGo reporter 3%, SARS PLP yeast 1%, NS1 function inh inconclusive and LASV entry inh inconclusive.
`CC(NC(=O)COc1ccc(/C=N/NC(=O)CO)cc1)c1ccccc1` (centres undefined) gave RE007 growth inh 14%, StopGo reporter -7%, SARS PLP yeast 0% and NS1 function inh -3%.
For CC(C)C1Cc2[nH]c(=O)c(C(=O)O)cc2CO1 (centres undefined) the results were Marburg entry inh 5%, RE007 growth inh -10%, StopGo reporter 48%[activator], SARS PLP yeast 0%, Cruzain inh noDet 2%, NS1 function inh 0%, Cruzain Triton -1.7% and LASV entry inh 9%.
COc1ccc(CCC(=O)Nc2ccc3c(c2)OCO3)cc1 was read as Marburg entry inh 7%, RE007 growth inh 8%, StopGo reporter 31%[activator], SARS PLP yeast -2%, NS1 function inh 0% and LASV entry inh 5%.
Screening COc1ccc(CC(=O)Nc2cccc3ncccc23)cc1OC returned Marburg entry inh 5%[46.1 µM], RE007 growth inh -5%, StopGo reporter -23%, SARS PLP yeast 0% and LASV entry inh 0%.
Screening Cc1cc(O)ccc1NC1=CC(=O)CC(C)(C)C1 returned Marburg entry inh 2%, RE007 growth inh -5%, StopGo reporter 5%, SARS PLP yeast 14%, Cruzain inh noDet -6%, NS1 function inh 27%, Cruzain Triton -2.6% and LASV entry inh inconclusive.
Screening CCCN(CCC)CCCNC(=O)Cn1cc2c(n1)-c1c(oc(C(=O)N3CCCC3)c1C)CC2 returned StopGo reporter 6%, Cruzain inh noDet 2%, Cruzain Triton -2.5% and LASV entry inh 3%[46.1 µM].
Screening CN(C)c1ccc(/C=C/c2nc(-c3ccccc3O)n(-c3ccccc3)n2)cc1 returned Marburg entry inh 8%[46.1 µM], StopGo reporter 6%, Cruzain inh noDet -7%, Cruzain Triton 0.6% and LASV entry inh inconclusive.
For O=C(Cc1ccccc1F)Nc1nc2ccccc2[nH]1 the results were Marburg entry inh 28%[46.1 µM], RE007 growth inh 19%, StopGo reporter 56%[activator], SARS PLP yeast -1%, NS1 function inh 1% and LASV entry inh 20%.
For Cc1ccc(C)c(S(=O)(=O)Nc2ccc(C(=O)NCC(c3ccco3)N3CCCCC3)cc2)c1 (centres undefined) the results were Marburg entry inh inconclusive, RE007 growth inh -2%, StopGo reporter 5%, SARS PLP yeast 4%, NS1 function inh 1% and LASV entry inh inconclusive.
For CCOC(=O)C1(CCOc2ccccc2)CCN(Cc2ccc(CO)o2)CC1 the results were Marburg entry inh inconclusive, RE007 growth inh -16%, StopGo reporter -25%, SARS PLP yeast 1%, NS1 function inh 4% and LASV entry inh -14%[46.1 µM].
`COC(=O)C(CC(=O)c1cccc(OC)c1)c1ccc(F)cc1` (centres undefined) gave Marburg entry inh inconclusive, RE007 growth inh 4%, StopGo reporter -6%, SARS PLP yeast -3% and LASV entry inh inconclusive.
For O=C(NCCCN=C1NS(=O)(=O)c2ccccc21)c1ccco1 the results were Marburg entry inh 17%, RE007 growth inh 4%, StopGo reporter 10%, SARS PLP yeast 9%, Cruzain inh noDet -1%, NS1 function inh 4%, Cruzain Triton 2.1% and LASV entry inh -20%.
Screening NS(=O)(=O)c1ccc(CCNC(=O)CSc2nc3ccsc3c(=O)n2CC(=O)O)cc1 returned Marburg entry inh 18%, RE007 growth inh 15%, StopGo reporter -5%, SARS PLP yeast 16%, Cruzain inh noDet -4%, NS1 function inh -1%, Cruzain Triton 2.3% and LASV entry inh 5%.
Screening Cc1ccc(C(=O)n2nc(C#N)c(C#N)c2N)cc1 returned Marburg entry inh 0%, RE007 growth inh -1%, StopGo reporter 1%, SARS PLP yeast -2%, NS1 function inh 3% and LASV entry inh -10%.
CCN1C(=S)N[C@@H](CCc2ccccc2)C(C(=O)OC)=C1C was read as RE007 growth inh 24%, StopGo reporter -20%, SARS PLP yeast 1%&6% and NS1 function inh 5%&19%.
CCC1(c2ccccc2)NC(=O)N(CC(=O)NCc2ccc(OC)cc2)C1=O (centres undefined) was read as Marburg entry inh 7%[46.1 µM], RE007 growth inh 9%, StopGo reporter -11%, SARS PLP yeast 0%, NS1 function inh 16% and LASV entry inh -18%.
Screening COc1ccc(C(=O)NCCc2nnc3ccc(SCC(=O)NCc4ccc(F)cc4)nn23)cc1 returned Marburg entry inh -21%[46.1 µM], RE007 growth inh 0%, StopGo reporter inconclusive, SARS PLP yeast 0%, NS1 function inh -36% and LASV entry inh -1%[46.1 µM].
Screening C=CCN(c1nc(C)cc(OC)n1)S(=O)(=O)c1ccc(C)cc1 returned RE007 growth inh 1%, StopGo reporter 8%, SARS PLP yeast -6% and NS1 function inh -35%.
Screening COC(=O)c1cc(C)nc2c1c(=O)nc(SCc1ccccc1Cl)n2C1CC1 returned StopGo reporter inconclusive, Cruzain inh noDet inconclusive, Cruzain Triton -5.6% and LASV entry inh -15%[46.1 µM].
`COc1cccc(NC(=O)CN(C)C(=O)CNC(=O)c2ccc(C)s2)c1` gave Marburg entry inh -8%[46.1 µM], RE007 growth inh 7%, StopGo reporter -6% and LASV entry inh -15%.
`Cc1ccc(S(=O)(=O)Oc2ccc(/C=N/NC(=O)c3nn(C)cc3Cl)cc2)cc1` gave Marburg entry inh inconclusive, RE007 growth inh 10%, StopGo reporter 16%, SARS PLP yeast 3%, Cruzain inh noDet 5%, NS1 function inh -4%, Cruzain Triton -6.1% and LASV entry inh -18%.
Cc1ccc(S(C)(=O)=NC(=O)NC(=O)c2c(F)cccc2Cl)cc1 (centres undefined) was read as Marburg entry inh -28%, RE007 growth inh 13%, StopGo reporter 1%, SARS PLP yeast 1%, NS1 function inh -1% and LASV entry inh inconclusive.
Cc1ccccc1CNC(=O)c1ccc2nc(C(C)C)oc2c1 was read as StopGo reporter 18%, Cruzain inh noDet 9%, Cruzain Triton -3.8% and LASV entry inh -3%[46.1 µM].
Screening CCOC(=O)C1CCN(S(=O)(=O)C(F)(F)c2nc3ccccc3s2)CC1 returned Marburg entry inh -13%, RE007 growth inh 8%, SARS PLP yeast 7%, Cruzain inh noDet -5%, NS1 function inh -10%, Cruzain Triton -7.6% and LASV entry inh -6%.
`Cc1ccc(Nc2nc(/N=C/NO)n[nH]2)cc1C` gave Marburg entry inh inconclusive, RE007 growth inh -2%, StopGo reporter 35%[activator], SARS PLP yeast -3% and LASV entry inh -7%[46.1 µM].
c1ccc(Cn2c(SCc3cn4cccnc4n3)nnc2-c2ccco2)cc1 was read as Marburg entry inh 18%, RE007 growth inh -13%, StopGo reporter -19%, SARS PLP yeast -9%, Cruzain inh noDet -9%, NS1 function inh -8%, Cruzain Triton -2.5% and LASV entry inh 11%.
NC(=O)N/N=C/c1c(O)ccc2oc3c(c12)CCCC3 was read as Marburg entry inh inconclusive, RE007 growth inh -7%, StopGo reporter 17%, SARS PLP yeast 8%, NS1 function inh 6% and LASV entry inh -16%.
For COc1ccccc1/C=N/Nc1nncc2ccccc12 the results were Marburg entry inh inconclusive, RE007 growth inh -8%, StopGo reporter 33%[activator], SARS PLP yeast 3%, Cruzain inh noDet 7%, NS1 function inh 0%, Cruzain Triton 0.5% and LASV entry inh -16%.
Screening Cc1cc(C(=O)N/N=C/c2cc(Br)ccc2OC(=O)c2ccc(Br)cc2)n[nH]1 returned Marburg entry inh -5%, SARS PLP yeast -26%, Cruzain inh noDet inconclusive, NS1 function inh 8% and Cruzain Triton -3.2%.
Screening O=C(CCSCCc1ccccn1)Nc1c(F)c(F)c(F)c(F)c1F returned Marburg entry inh 9%, RE007 growth inh -12%, StopGo reporter 44%[activator], SARS PLP yeast 17%, Cruzain inh noDet -7%, NS1 function inh 19%, Cruzain Triton -0.7% and LASV entry inh -12%.

Outcome played no part in choosing rows; any-hit rate near 4.7%.
